SmPrx2 inh: blocks S. mansoni peroxiredoxin 2 enzymatic activity; S. mansoni Prx2 activity coupled to TGR/GSH (TGR is thioredoxin glutathione reductase), NADPH fluorescence loss, qHTS; some inactives read as strong as hits; Potency, µM; hit rate 0.07% among 65,000; AID 448; active means full or partial inhibition curve with a strong effect at the top dose; inconclusive means weaker partial or single-point curve; inactive means no accepted curve; also: series up to 57 µM; many of its hits are not listed in these tables
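Activity is read as the drop in NADPH fluorescence (365/450 nm), recorded every 30 sec for 8 min after H2O2 addition. Prx2 is coupled to TGR-driven NADPH oxidation through glutathione, in phosphate buffer pH 7.4.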
LT uptake inh: blocks cellular internalization of anthrax lethal toxin | Potency, µM (doses to about 40 µM), without a hit: at the top dose activity change, negative = inhibition, usual class: inhibitors | hit rate 0.67% among 70,000 | Cells, anthrax lethal toxin internalization, FRET ratio (460/530); active = well fitted falling ratio curve with the 530 nm signal flat; inconclusive = other ratio curves, or a change in one channel alone; inactive = flat curves in the ratio and both channels; the % refers to the ratio; also: % is scaled to controls: 0 for no effect and ±100 for the full control effect; nearly all actives have a fitted effect of over 50% in size; tested in ME-180 cells; beta-lactamase reporter
An asterisk follows results filed as active; ? = inconclusive; . = no result given; [ ] = dose if it differs, or a comment. Potency is read from the fitted curve at half-maximal effect. Some of the compounds tested; count on the stated rates, not on these rows.

cpd	molecule	SmPrx2 inh	LT uptake inh
1	O=[n+]1c2c(n([O-])c3cc(Br)ccc31)CCC2	>57	-11%
2	COC(=O)c1cn(-c2ccccc2)nc1-c1cccnc1	.	20%
3	CSc1nc(=NC(C)=O)ss1	>57	?
4	COc1cccc(-c2nnc(SCc3nc4ccccc4[nH]3)n2N)c1	>57	3%
5	O=C(Nc1ccccc1)Nc1ccccc1C(=O)NCc1ccco1	>57	?
6	CC(C)=CC(=O)Nc1ccc(Br)cc1	>57	-2%
7	COc1cc(S(=O)(=O)N(Cc2ccco2)C2CCCC2)ccc1-n1cnnn1	>57	-11%
8	COc1ccc(-c2nc(C#N)c(NCCc3ccccc3)o2)cc1OC	>57	?
9	C=CCN(C(=O)CNS(=O)(=O)c1ccccc1)C(C(=O)NCCOC)c1ccncc1 (stereo not given)	>57	1%
10	Cc1cccc(C2CC(c3ccccc3)Nc3nc(N)nn32)c1 (stereo not given)	>57	18%
11	O=C(COc1ccccc1Cl)Nc1ccc2c(c1)OCCO2	.	-25%
12	CCCCC[C@H](O)/C=C\[C@H]1[C@H](C/C=C\CCCC(=O)O)[C@@H](O)C[C@H]1O (tested in a mixture with another compound)	>57	2%[3.58 µM]
13	Cc1oc(-c2cccc(Cl)c2)nc1CN1CCCC(C(=O)NCc2ccco2)C1 (stereo not given)	>57	-6%
14	Cc1nc2ccc(S(=O)(=O)NCC(=O)N3CCN(c4ccccn4)CC3)cc2s1	>57	8%
15	COc1ccc(O[C@H]2C=C[C@@H](c3ccccc3)O[C@H]2CO/N=C2/c3cc(OC)ccc3O[C@@H](c3cccc(OC)c3)[C@H]2O)cc1	.	-13%[8 µM]
16	C[C@@]12CC[C@@H]3c4ccc(O)cc4CC[C@H]3[C@H]1C[C@@H](O)[C@H]2O	>57	?
17	Cc1c(N(C)C)nc2ccccc2c1N	>57	1%
18	CCOC(=O)C1CCCN(C(=O)c2cncc(Br)c2)C1 (stereo not given)	>57	-5%
19	O=S(=O)(c1ccccc1)N1CCC[C@@]2(CCN(c3cccc(-c4ccccc4)c3)C2)C1	>57	0%
20	CCOC(=O)c1coc(CNC(=O)c2c(C)oc3c2CCCC3)c1	>57	-3%
21	O=C(c1cc2c(s1)CCC2)N1C(=O)c2ccccc2S1(=O)=O	>57	20%
22	O=C(c1ccco1)N1CCN(CC(O)COc2ccc3oc4ccccc4c3c2)CC1 (stereo not given)	>57	3%
23	Clc1ccccc1-c1cncnc1NCCc1cnc[nH]1	>57	-19%
24	Cc1ccc(S(=O)(=O)N(C)CC(=O)N2CCOCC2)cc1	>57	-11%
25	CCn1c(CNC(=O)c2ccc(OC)c(OC)c2)nnc1SCC(=O)c1ccc(OC)cc1	>57	-19%
26	O=C(COC(=O)Cn1cnc2ccccc21)Nc1ccc2c(c1)OCCO2	>57	2%
27	CCOC(=O)C(NC(=O)OC(C)C)(Nc1nccs1)C(F)(F)F (stereo not given)	>57	.
28	CCOC(=O)CSC1=Nc2ccccc2C2=NC(CC(=O)NCc3ccc(OC)cc3)C(=O)N12 (stereo not given)	>57	17%
29	C=CCSc1nnc2c(n1)OC(c1cccnc1)N(C(C)=O)c1ccccc1-2 (stereo not given)	>57	-3%
30	O=C(CSC1=NCCS1)N1CCCCCC1	>57	5%
31	CN1CC2(Cc3c1ccc1ccccc31)C(=O)OC(C)(C)OC2=O	>57	8%
32	Nc1ncnc2c1ncn2CCNCCc1ccccc1	>57	0%
33	Cn1c(N)c(C(=O)COC(=O)CCCc2c[nH]c3ccccc23)c(=O)n(C)c1=O	>57	-8%
34	COC(=O)C1(C)C=C2C(=C(C)C(=O)C2C)CN1 (stereo not given)	>57	-4%
35	CCOc1nc(C)ccc1-c1noc(-c2ccco2)n1	>57	-12%
36	C1CCc2nnc(-c3nnc4n3CCCCC4)n2CC1	.	18%
37	CCOC(=O)C1=C(N)n2c(s/c(=C\c3cccs3)c2=O)=C(C(=O)OCC)C1c1cccs1 (stereo not given)	>57	?
38	Fc1ccc(Nc2ncncc2-c2ccoc2)cc1	>57	?
39	Cc1[nH]c2ccccc2c1-c1nc2ccccc2[nH]1	>57	?
40	CCNc1ncc2nc(-c3cccs3)c(=O)n(Cc3cccs3)c2n1	>57	?
41	CCC1C(=O)N=C(SCC(=O)Nc2cccc3ccccc23)NC1=O (stereo not given)	>57	6%
42	CC(=O)c1ccc(NC(=O)Cn2nc(C)cc2C)cc1	>57	1%
43	CCOC(=O)CCCNC(=O)CN1C(=O)NC2(CCCCCC2)C1=O	>57	-2%
44	O=C(NCc1ccccn1)C1CCCN(S(=O)(=O)c2ccccc2)C1 (stereo not given)	>57	0%
45	Cc1cc(C)nc(/N=C2\NC(=O)CC3C(=O)NCCN23)n1 (stereo not given)	>57	-21%
46	CC1=C(C#N)C(c2ccc3ncccc3c2)C(C#N)=C(C)N1	>57	5%
47	COc1ccc(C)cc1NC(=O)NCCC1=CCCCC1	>57	-11%
48	COc1cc(C2C3CN(C)CC=C3C(C#N)=C(N)C2(C#N)C#N)ccc1OC(C)C (stereo not given)	>57	?
49	CCOc1ccc(C(=O)Nc2ccc(N3CCN(C)CC3)cc2)cc1Br	>57	-1%
50	COc1ccc(-n2c(=O)c(C)nc3cnc(N4CCNCC4)nc32)cc1	>57	?
51	CSc1nnc2c3cc(C)ccc3n(Cc3ccccc3)c2n1	>57	23%
52	N#CC1=C(N)Oc2n[nH]c(-c3cccs3)c2C1c1cccs1 (stereo not given)	>57	-4%
53	CSCC[C@H](NC(=O)OC(C)(C)C)C(=O)N1CCC(C(=O)N[C@@H](C)C(=O)O)CC1	>57	?
54	Cc1csc(NC(=O)c2ccc(C)c(S(=O)(=O)N3CCCCC3)c2)n1	>57	-7%
55	Clc1ccc(-c2nnc(-c3cccc4ccccc34)o2)cc1Cl	>57	-15%[8 µM]
56	Fc1ccc(C(OCCCc2cnc[nH]2)c2ccc(F)cc2)cc1	>57	?
57	COc1ccc(C2C(C(=O)N3CCN(c4ccccc4)CC3)c3ccccc3C(=O)N2C)cc1OC (stereo not given)	>57	-5%
58	CC(=O)c1ccc(OC(=O)C2CC(=O)N(c3cccc(C)c3)C2)cc1 (stereo not given)	>57	8%
59	CN(C)Cc1ccccc1-c1cncnc1Nc1ccccc1	>57	-9%
60	CCC(Sc1ncccc1C(=O)O)C(=O)N1CCCC1 (stereo not given)	>57	-3%

(list continues)
cpd	molecule	SmPrx2 inh	LT uptake inh
61	Cc1cccc2cc(CN(Cc3ccc4c(c3)OCO4)Cc3nnnn3C3CCCC3)c(=O)[nH]c12	>57	5%
62	CCCCNc1nc(C)nc2c1nc(-c1ccccc1)n2CCCN1CCCCC1C (stereo not given)	.	-8%
63	CCc1ccc(NC(=O)N(CCCOC(C)C)C2CCN(C(C)=O)CC2)cc1	>57	2%
64	CCN(CCCNC(=O)C1CCN(S(=O)(=O)CC)CC1)c1cccc(C)c1	>57	-2%
65	C=C(C)Cn1c(SCCCO)nc2c1c(=O)[nH]c(=O)n2C	>57	2%
66	CCCCOc1ccc(C(O)(CCC)CCN2CCOCC2)cc1 (stereo not given)	>57	4%
67	O=c1c(-c2cccs2)nc2cnc(N3CCNCC3)nc2n1CCc1ccccc1	>57	?
68	CSc1cccc(NC(=O)Nc2ccccc2)c1	.	?
69	CC(=NCc1cccnc1)c1c(O)n(Cc2ccccc2)c(=O)[nH]c1=O	>57	16%
70	O=C1c2ccccc2NC(c2cnc3ccccc3n2)N1O (stereo not given)	>57	-4%
71	CCN(CC)CCNC(=O)Cn1nc(Cc2cccnc2)c2ccccc2c1=O	>57	?
72	CN(C)c1ncc2nc(-c3cn(C)c4ccccc34)c(=O)n(C[C@H]3CCCO3)c2n1	>11	?
73	COc1ccc(OC)c(C2C(C(=O)Nc3ccc(F)cc3)=C(C)Nc3nc(CCCO)nn32)c1 (stereo not given)	>57	-24%
74	COCCn1cnnc1SCC(=O)c1ccc(S(=O)(=O)N2CCCC2)cc1	>57	2%
75	Cc1nn(Cc2ccccc2)c2c1C(c1ccco1)C(C#N)=C(N)O2 (stereo not given)	>57	-10%
76	CO[C@H]1COC(=O)CCC[C@H](C)[C@H](OC)COC(=O)C/C=C\[C@@H]1C	.	10%[8 µM]
77	CC1S/C(=C(\C#N)C(=O)NCc2ccco2)N(Cc2ccco2)C1=O (stereo not given)	>57	-6%
78	N#CC1=C(N)Oc2n[nH]c(-c3cccs3)c2C1c1ccco1 (stereo not given)	>57	2%
79	CCOC(=O)C1CCN(c2cc(=O)n(C3CCCCC3)c(=O)[nH]2)CC1	>57	?
80	CCn1c(C)c(C(=O)O)c2cc(OC)ccc21	>57	-11%
81	CCN(C(=O)CN1CCN(c2ccccc2)CC1)c1c(N)n(Cc2ccccc2)c(=O)[nH]c1=O	>57	6%
82	Cc1cccc(N2CCN(C(=O)c3cc4n(n3)C(C(F)(F)F)CC(c3ccco3)N4)CC2)c1C (stereo not given)	>57	?
83	Cn1ccnc1C(=O)c1cc(=O)c2ccccc2o1	>57	3%
84	CN1C(=O)CC(C(=O)Nc2ccc(F)cc2)SC1=Nc1ccc2c(c1)OCO2 (stereo not given)	>57	-2%
85	CCOC(=O)c1nn(-c2ccccc2C)c(=O)c(C#N)c1C	>57	?
86	N#CC(C#N)=c1ccc2c(c1)NC1(CCCCC1)N=2	>57	8%
87	CCOC(=O)CNC(=O)c1nn(-c2cccc(OC)c2)c(=O)c2ccccc12	>57	-12%
88	COc1cccc(NC(=O)C2C3CC4OC(=O)C2C4C3)c1 (stereo not given)	>57	2%
89	O=C(O[C@@H](C(=O)O)[C@@H](OC(=O)c1ccccc1)C(=O)O)c1ccccc1	.	-8%
90	CC(C)CCOCC(=O)Nc1cccc(C(=O)O)c1	>57	8%

Entries of single compounds from above. Order of screens: SmPrx2 inh	LT uptake inh
CN(C)c1ncc2nc(-c3cn(C)c4ccccc34)c(=O)n(C[C@H]3CCCO3)c2n1 is entered as >11	?
COCCn1cnnc1SCC(=O)c1ccc(S(=O)(=O)N2CCCC2)cc1 is entered as >57	2%
CCOC(=O)C1CCN(c2cc(=O)n(C3CCCCC3)c(=O)[nH]2)CC1 is entered as >57	?
Cc1nn(Cc2ccccc2)c2c1C(c1ccco1)C(C#N)=C(N)O2 (stereo not given) is entered as >57	-10%
O=C(O[C@@H](C(=O)O)[C@@H](OC(=O)c1ccccc1)C(=O)O)c1ccccc1 is entered as .	-8%

The list continues.
cpd	molecule	SmPrx2 inh	LT uptake inh
91	COc1ccc(C2C=C(c3ccccc3)Nc3nc(CCCO)nn32)cc1 (stereo not given)	>57	?
92	Cc1cc(C(=O)COC(=O)c2n[nH]c3ccccc23)c(C)n1C	>57	-25%
93	COc1cccc(-c2nnc(SCC(=O)N(C(C)C)C(C)C)o2)c1	>57	2%
94	COC(=O)c1cc(NC(=O)CC2SCCNC2=O)cc(C(=O)OC)c1 (stereo not given)	>57	-14%
95	O=c1c2c3c(sc2nc2sc(C4CC4)nn12)CCCC3	>57	-3%
96	O=C(COc1ccc(-n2cnnn2)cc1)N1CCN(c2ccc(F)cc2)CC1	>57	-10%
97	CCCC(=O)Nc1nc(C(=O)OCC)cs1	>57	-9%
98	COCCCNC(=O)C1CC(=O)N(C2CCCC2)C1 (stereo not given)	>57	7%
99	CCc1ccc(Nc2cc(C)nc3nc(C)nn23)cc1	>57	-10%
100	O=C(Oc1cccc(N2C(=O)CCC2=O)c1)C1CC(=O)N(c2ccc(Br)cc2)C1 (stereo not given)	>57	6%
101	O=c1c(-c2ccc(F)cc2)nc2cnc(Nc3ccccc3)nc2n1C[C@H]1CCCO1	>57	?
102	O=C(CNC(=O)c1ccco1)OC(C(=O)c1ccccc1)c1ccccc1 (stereo not given)	>57	7%
103	Cn1c(=O)oc2cc(S(=O)(=O)N3CCN(c4cccc(Cl)c4)CC3)ccc21	>57	?
104	O=S1(=O)N=C(N2CCc3ccccc3C2)c2ccccc21	>57	-19%
105	COCCNc1nc(-c2ccccc2C(F)(F)F)nc2ccccc12	>57	2%
106	COc1cccc(NC(=O)C2CC(=O)N=C(N)S2)c1 (stereo not given)	>57	6%
107	C=C1[C@@H]2C[C@@]3([C@H]1O)[C@H]1C[C@@H]4[C@@]5(C)CC[C@H](O)[C@]4([C@H]1N(CC)C5)[C@H]3C[C@H]2O	>57	-4%[3.58 µM]
108	CCN1C[C@@]2(COC)CC[C@H](O)[C@@]34[C@@H]2C[C@@H]([C@@H]13)[C@]1(O)C[C@@H](OC)C2C[C@H]4[C@H]1[C@H]2OC(C)=O	>57	-2%[3.58 µM]
109	O=C(CCS(=O)(=O)Cc1ccccc1)NCc1ccco1	>57	1%
110	C=CCOC(=O)C1=C(C)NC(SCC(=O)NC(=O)OCC)=C(C#N)C1c1cccnc1 (stereo not given)	>57	?
111	Cc1cc(C(=O)CN2C(=O)c3ccccc3S2(=O)=O)c(C)n1-c1ccccc1	>57	8%

High-throughput results: PubChem BioAssay, National Center for Advancing Translational Sciences (NCATS)
